Marburg entry inh: blocks Marburg virus binding to or entry into cells; Marburg virus pseudotyped entry inhibition, cell reporter; control for the full effect not named in the record; about a third of the inactives were read at about 46 µM; Potency, µM (highest dose often 37.8 µM), for inactives: at the top dose activity change, negative = inhibition, usual class: inhibitors; 300,000 compounds, 1.8% hits; active = well fitted inhibition curve with a large enough effect; inconclusive = small, poorly fitted or top-dose-only effect, or effect the other way; inactive = flat fitted curve, though single readings scatter; tested in HEK293 cells; about a fifth of its hits are not listed in these tables; note: % is set by controls: 0 for no effect and ±100 for the full control effect; luciferase read-out
RE007 growth inh: less growth of the S. pombe RE007 Vpr strain; 360,000 compounds, 0.21% hits; S. pombe RE007 Vpr strain, BacTiter-Glo ATP luminescence, 24 h; control for the full effect not named in the record; AID 651644; Potency, µM (top dose mostly 92.2 µM), for the others: top-dose activity change, negative = less growth; active = well fitted falling curve with a large enough effect; inconclusive = small, poorly fitted or top-dose-only effect; inactive = no such curve, though single readings can be large or run the other way;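 note: % is set by controls: 0 for no effect and ±100 for the full control effect; nearly all actives have a fitted effect of over 50% in size; the assay follows cell death caused by Vpr and the record does not say whether a fall means rescue or toxicity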
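Fission yeast strain RE007, carrying one chromosomally integrated HIV-1 vpr copy, was seeded at OD 0.01 in PMG+AL medium with 23 nL pinned compound. After 24 h at 30 °C and 99% humidity, viability was read by BacTiter-Glo luminescence.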
NS1 function inh: blocks influenza NS1 protein function; 270,000 compounds, 0.4% hits; S. cerevisiae slowed by influenza A NS1, growth recovery by OD600; Potency, µM (titrated, usually from 46.1 µM), for the others: at the top dose activity, positive = more growth; active means well fitted rising curve with a large enough effect; inconclusive means small, poorly fitted or top-dose-only effect; inactive means no such curve, though single readings can be large or run the other way; note: nearly all actives have a fitted effect of over 50% in size
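Growth recovery, yeast-based: influenza A NS1 expressed in S. cerevisiae causes slow growth, and suppressors are detected by OD600. The parent strain without NS1 is used as positive control.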
2A StopGo: FMDV 2A StopGo reporter, luciferase signal. human cells with a luciferase reporter of 2A StopGo recoding; control for the full effect not named in the record. Potency, µM (series often up to 57.9 µM), without a hit: at the highest dose signal change, negative = less light. 410,000 compounds, 1.2% hits. AID 1159524; active = well fitted falling curve with a large enough effect; inconclusive = small, poorly fitted or top-dose-only effect; inactive = no such curve, though single readings can be large or run the other way; tested in HEK293T cells; note: % is set by controls: 0 for no effect and ±100 for the full control effect; nearly all actives have a fitted effect of over 45% in size; luciferase light after 4 h
Cruzain Triton: cruzain (T. cruzi) inhibition with detergent | purified cruzain, Z-FR-AMC fluorescence, 0.01% Triton | 200,000 compounds, 0.43% hits | P25779 | AID 1478 | Potency, µM, for the others: max response, negative = inhibition, usual class: inhibitors;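 note: plate controls were neutral wells for no effect and buffer without enzyme for full effect; nearly all actives have a fitted effect of over 40% in size; top concentration of the series not given in the record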
Target sequence (P25779 123-467 limits assumed): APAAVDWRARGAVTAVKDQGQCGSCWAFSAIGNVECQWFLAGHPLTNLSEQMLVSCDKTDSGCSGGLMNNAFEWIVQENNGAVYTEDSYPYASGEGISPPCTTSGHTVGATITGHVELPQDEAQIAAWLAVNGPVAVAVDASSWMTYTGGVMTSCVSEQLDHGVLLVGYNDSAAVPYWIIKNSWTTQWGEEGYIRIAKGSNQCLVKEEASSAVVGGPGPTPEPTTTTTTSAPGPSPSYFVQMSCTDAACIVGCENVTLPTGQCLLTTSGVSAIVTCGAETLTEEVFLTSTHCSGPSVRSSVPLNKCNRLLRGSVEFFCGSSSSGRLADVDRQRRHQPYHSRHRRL
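Cruzain (1.5 nM) preincubated 15 min at RT with compound in 100 mM sodium acetate pH 5.5, 5 mM DTT, 0.01% Triton X-100. Reaction started with 2 uM Z-FR-AMC; AMC fluorescence (ex 360/em 450 nm) change over 60 s gave rate.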
Cruzain inh noDet: cruzain (T. cruzi) inhibition without detergent | P25779 | purified cruzain, Z-FR-AMC fluorescence, no detergent | Potency, µM, inactives show max response, negative = inhibition, most hits filed as inhibitors | 200,000 compounds, 2.3% hits | AID 1476;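 note: plate controls were enzyme without inhibitor for no effect and buffer without enzyme for full effect; nearly all actives have a fitted effect of over 40% in size; top concentration of the series not given in the record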
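Purified cruzain at 1.5 nM, pre-incubated 15 min with compound at room temperature in 100 mM sodium acetate pH 5.5, 5 mM DTT, 0.00005% Triton X-100. Reaction started with 2 uM Z-FR-AMC; AMC fluorescence increase over 60 s gives rate.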
LASV entry inh: Lassa virus entry inhibition. Lassa virus pseudotype entry inhibition, cell reporter; control for the full effect not named in the record. 300,000 compounds, 1.2% hits. Potency, µM (titrated, usually from 37.9 µM), for inactives: at the highest dose activity change, negative = inhibition, usual class: inhibitors. AID 540256; active means well fitted inhibition curve with a large enough effect; inconclusive means small, poorly fitted or top-dose-only effect, or effect the other way; inactive means flat fitted curve, though single readings scatter; tested in HEK293 cells; note: % is set by controls: 0 for no effect and ±100 for the full control effect; nearly all actives have a fitted effect of over 50% in size; luciferase read-out
SARS PLpro yeast: SARS-CoV PLP inhibition in yeast; 330,000 compounds, 0.19% hits; S. cerevisiae expressing SARS-CoV PLpro, growth rescue; control for the full effect not named in the record; Potency, µM (titrated, usually from 32.9 µM), for inactives: at the highest dose activity, positive = growth rescue; active means well fitted rising curve with a large enough effect; inconclusive means small, poorly fitted or top-dose-only effect; inactive means no such curve, though single readings can be large or run the other way; note: 0% is about no effect; nearly all actives have a fitted effect of over 55% in size; growth read by luminescence after 48 h
An asterisk follows results filed as active; & = joins results of further samples; [ ] = another dose, or the depositor's remark. Unless noted, calls come from the whole dose curve; as a rule, active = well fitted curve in the direction sought with a large enough effect; inconclusive = small, poorly fitted or top-dose-only effect, or another doubt; inactive = no such curve, though single readings can be large; an effect the other way counts as inactive or inconclusive. Potency is the fitted concentration of half-maximal effect. An unsorted share of the library, and some 4.6% of all compounds hit somewhere here.

A first look, two compounds:
Screening O=C(O)[C@H]1NCCC[C@H]1C(=O)O returned Marburg entry inh -13%&-15%&-15%, NS1 function inh 1%, Cruzain Triton 3.7%, Cruzain inh noDet -9% and LASV entry inh 15%.
c1ccc(-c2ccc(SCc3cccnc3)nn2)nc1 was read as Marburg entry inh -16%[46.1 µM], RE007 growth inh 0%, 2A StopGo 28%, LASV entry inh 11% and SARS PLpro yeast 28%.

Results, repeating the preview:
Screening O=C(O)[C@H]1NCCC[C@H]1C(=O)O returned Marburg entry inh -13%&-15%&-15%, NS1 function inh 1%, Cruzain Triton 3.7%, Cruzain inh noDet -9% and LASV entry inh 15%.
c1ccc(-c2ccc(SCc3cccnc3)nn2)nc1 was read as Marburg entry inh -16%[46.1 µM], RE007 growth inh 0%, 2A StopGo 28%, LASV entry inh 11% and SARS PLpro yeast 28%.
`COc1cc(NS(=O)(=O)c2ccc(NC(=O)c3ccco3)cc2)nc(OC)n1` gave Marburg entry inh 0%&-1%, RE007 growth inh -5%, NS1 function inh 3%, 2A StopGo 25%, Cruzain Triton -5.4%, Cruzain inh noDet -1%, LASV entry inh 5% and SARS PLpro yeast -1%.
COc1ccc(C(=O)Nc2nc(-c3ccc(OC)cc3)c(-c3ccc([N+](=O)[O-])cc3)s2)cc1 was read as Marburg entry inh 8%, RE007 growth inh 13%, NS1 function inh -5%, 2A StopGo 11%, Cruzain Triton 4.1%, Cruzain inh noDet 7.9µM*, LASV entry inh 2% and SARS PLpro yeast -2%.
Screening Cc1[nH]n(-c2ccccc2)c(=O)c1Sc1ccc(Cl)cc1 returned Marburg entry inh inconclusive, RE007 growth inh -10%, NS1 function inh -47%, 2A StopGo -24%, Cruzain Triton -1.6%, Cruzain inh noDet 0%, LASV entry inh -12% and SARS PLpro yeast -54%.
For COc1ccc(NC(=O)c2ccc(-c3nc(COc4ccccc4)c(C)o3)cc2)cc1 the results were 2A StopGo -3%, Cruzain Triton -1.6%, Cruzain inh noDet 2% and LASV entry inh 9%[46.1 µM].
Screening COC(=O)c1ccc(Cl)c(NC(C)=O)c1 returned Marburg entry inh -3%, RE007 growth inh -6%, NS1 function inh 2%, 2A StopGo 12%, Cruzain Triton 6.2%, Cruzain inh noDet 13%, LASV entry inh 12% and SARS PLpro yeast 5%.
For COCc1cc(CN(C)C(=O)C2CCC(=O)N(Cc3cccc(OC)c3)C2)[nH]n1 (stereo not drawn) the results were RE007 growth inh 9%, NS1 function inh -3%, 2A StopGo -8% and SARS PLpro yeast -3%.
`Cc1ccc(C(=O)Nc2ccc3c4c(cccc24)CC3)cc1[N+](=O)[O-]` gave Marburg entry inh 9%, RE007 growth inh -3%, NS1 function inh -6%, 2A StopGo -19%, Cruzain Triton -5.3%, Cruzain inh noDet inconclusive, LASV entry inh 14% and SARS PLpro yeast 5%.
Screening S=c1[nH]nc(-c2ccncc2)n1/N=C/c1cccc(Cl)c1 returned RE007 growth inh -6%, NS1 function inh 8%, 2A StopGo -13% and SARS PLpro yeast -2%.
N#C/C(=C\c1ccc(N2CCOCC2)o1)c1ccccc1 was read as Marburg entry inh inconclusive, RE007 growth inh inconclusive, NS1 function inh 14%, Cruzain Triton -14%, Cruzain inh noDet 28%, LASV entry inh inconclusive and SARS PLpro yeast -5%.
Screening COc1ccc(CCNC(=O)/C=C/c2cc(OC)c(OC)c(OC)c2)cc1OC returned Marburg entry inh 7%[46.1 µM], RE007 growth inh 2%, NS1 function inh -1%, 2A StopGo -7%, LASV entry inh 14% and SARS PLpro yeast 2%.
`CCSc1nnc(NC(=O)CSc2nc3c(c(=O)n2CC)SC(C)C3)s1` (stereo not drawn) gave Marburg entry inh inconclusive, RE007 growth inh 1%, NS1 function inh -8%, 2A StopGo inconclusive, Cruzain Triton -0.6%, Cruzain inh noDet 0%, LASV entry inh inconclusive and SARS PLpro yeast -1%.
Cc1cccc(OCCCSc2nc3ccccc3[nH]2)c1 was read as Marburg entry inh inconclusive, RE007 growth inh 45µM*, NS1 function inh -260%, 2A StopGo 0%, Cruzain Triton -13%, Cruzain inh noDet -13%, LASV entry inh -18% and SARS PLpro yeast -40%.
For Cc1c(OCc2ccccc2)c(=O)ccn1Cc1ccccc1 the results were Marburg entry inh 5%, RE007 growth inh 0%, NS1 function inh -5%, 2A StopGo 45%[activator], Cruzain Triton -1.2%, Cruzain inh noDet 16%, LASV entry inh inconclusive and SARS PLpro yeast 0%.
Screening CCC(=O)Nc1ccc(/C(C)=N\NS(=O)(=O)c2ccc(C)cc2)cc1 returned Marburg entry inh inconclusive, RE007 growth inh 17%, NS1 function inh 7%, 2A StopGo 74%[activator], Cruzain Triton 1.2%, Cruzain inh noDet -19%, LASV entry inh inconclusive and SARS PLpro yeast -11%.
`CC1CCCN(CCCN2C(=O)C3C(C(=O)Nc4cccc(Cl)c4)C4C=CC3(O4)C2C(=O)NC2CCCCC2)C1` (stereo not drawn) gave Marburg entry inh inconclusive, RE007 growth inh -12%, NS1 function inh -10%, 2A StopGo -9%, LASV entry inh -20%[46.1 µM] and SARS PLpro yeast -2%.
Cc1ccc(N2C(=O)CCC2(C(N)=O)c2ccccc2)cc1 (stereo not drawn) was read as Marburg entry inh 14%[46.1 µM], RE007 growth inh -12%, 2A StopGo -4%, LASV entry inh -1%[46.1 µM] and SARS PLpro yeast 1%.
`COc1cccc(C(=O)NC(C)c2cccc3ccccc23)c1OC` (stereo not drawn) gave Marburg entry inh 5.6µM*, RE007 growth inh 4%, NS1 function inh -24%, 2A StopGo -7%, LASV entry inh inconclusive and SARS PLpro yeast -23%.
For O=C(O)CC1=C(Nc2ccccc2)C(=O)N(c2ccccc2)C1c1ccc(F)cc1 (stereo not drawn) the results were Marburg entry inh 4%, RE007 growth inh 8%, NS1 function inh 20%, 2A StopGo 23%, Cruzain Triton -4.7%, Cruzain inh noDet -1%, LASV entry inh 3% and SARS PLpro yeast -16%.
Screening CCN(CC(=O)N1CCCC1)S(=O)(=O)c1ccccc1 returned RE007 growth inh 7%, NS1 function inh -4%, 2A StopGo 7% and SARS PLpro yeast -6%.
Screening Cc1ccc(S(=O)(=O)NC(CC(=O)O)c2ccccc2)cc1 (stereo not drawn) returned Marburg entry inh -5%, RE007 growth inh 11%, NS1 function inh 0%, 2A StopGo -15%, Cruzain Triton 4.5%, Cruzain inh noDet -3%, LASV entry inh inconclusive and SARS PLpro yeast 0%.
Screening O=C(CN(Cc1cccs1)C(=O)CNC(=O)c1ccco1)NC1CCCCC1 returned Marburg entry inh 0%[46.1 µM], RE007 growth inh 15%, NS1 function inh -5%, 2A StopGo -21%, Cruzain Triton -3.7%, Cruzain inh noDet -3%, LASV entry inh -4% and SARS PLpro yeast -7%.
For Cc1cccc(N=C2SC(C)CN2C(=O)CN2C(=O)NC3(CCCC3)C2=O)c1 (stereo not drawn) the results were Marburg entry inh inconclusive, RE007 growth inh 8%, 2A StopGo -1%, LASV entry inh -7% and SARS PLpro yeast 9%.
For Cc1c(C)c2c(OCC(=O)N[C@@H](C(=O)O)c3ccccc3)cc3c(c2oc1=O)CCC(C)(C)O3 the results were RE007 growth inh 6%, NS1 function inh inconclusive, 2A StopGo -16% and SARS PLpro yeast 12%.
Screening CCN1C(=O)c2ccccc2S(=O)c2ccc(C(=O)N3CCOCC3)cc21 (stereo not drawn) returned Marburg entry inh 0%[46.1 µM], RE007 growth inh 6%, NS1 function inh 0%, 2A StopGo 5%, LASV entry inh -2% and SARS PLpro yeast 1%.
`CCn1c2c(c(=O)n3ncc(C(=O)Nc4ccc(Cl)cc4C)c13)CN(Cc1ccc(OC)cc1)CC2` gave 2A StopGo 8%, Cruzain Triton -7.7%, Cruzain inh noDet 27% and LASV entry inh -5%[46.1 µM].
For Cn1c(CSc2nc3ccccc3s2)nc2ccccc21 the results were Marburg entry inh inconclusive, RE007 growth inh -2%[3.69 µM], NS1 function inh -63%, 2A StopGo -15%, Cruzain Triton -7.2%, Cruzain inh noDet -15%, LASV entry inh inconclusive and SARS PLpro yeast -28%.
COc1cc(OC)c2c(-c3ccccc3)cc(=O)oc2c1C(CCN1CCCC(C)C1)c1ccc(N(C)C)cc1 (stereo not drawn) was read as RE007 growth inh -4%, NS1 function inh -55%, 2A StopGo 7% and SARS PLpro yeast 3%.
Nc1nc(N2C(=O)C3CC=CCC3C2=O)nn1-c1ccccc1 (stereo not drawn) was read as Marburg entry inh -17%, RE007 growth inh 7%, NS1 function inh -13%, Cruzain Triton 3.2%, Cruzain inh noDet -7%, LASV entry inh 4% and SARS PLpro yeast 5%.
For O=[N+]([O-])c1cccc(C([O-])=C(C(=S)Nc2cccc3ccccc23)[n+]2ccccc2)c1 the results were Marburg entry inh inconclusive, RE007 growth inh -7%, 2A StopGo 0% and LASV entry inh 11%[46.1 µM].
Screening Cc1ccc(NC(=O)C(=O)NCCCN2CCCC2=O)c(C)c1 returned Marburg entry inh 16%, RE007 growth inh 16%, 2A StopGo 68%[activator], LASV entry inh 10%[46.1 µM] and SARS PLpro yeast -7%.
Screening Nc1ccc2nc(N)sc2c1 returned Marburg entry inh -3%[46.1 µM], RE007 growth inh 32%, 2A StopGo 25% and LASV entry inh -18%[46.1 µM].
COc1cc(OC)cc(C(=O)NCC(C)NC(=O)c2cc(OC)cc(OC)c2)c1 (stereo not drawn) was read as Marburg entry inh 4%[46.1 µM], RE007 growth inh 4%, 2A StopGo -18% and LASV entry inh -11%.
For Cc1ccc(Cn2nnc3c(=O)[nH]c(C4CCCN(C(=O)Nc5ccc(F)cc5)C4)nc32)cc1 (stereo not drawn) the results were Marburg entry inh inconclusive, RE007 growth inh -19%, NS1 function inh -7%, 2A StopGo 0%, Cruzain Triton -2.8%, Cruzain inh noDet 1%, LASV entry inh -4% and SARS PLpro yeast 5%.

High-throughput results (PubChem BioAssay)
